RanGTP-Impb inh: inhibitors of RanGTP-importin-beta interaction, primary screen, biochemical, FRET, CFP-Ran, YFP-importin-beta, homogeneous. Ran GTPase (GTP-bound) - importin-beta complex. cell-free CFP-Ran/YFP-importin-beta FRET ratio. inhibition, % (concentration not given with the values). 300,000 compounds, 1.1% hits;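 active = most replicates above 15%; inconclusive = exactly half above 15%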;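 also: 0% = DMSO wells and 100% = Ran loaded with GDP instead of GTP; wells of about 40 µL received 100 nL stock; the first replicate is given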
ALR inh: inhibitors of human ALR sulfhydryl oxidase, primary screen, biochemical, H2O2 detection, HRP-luminol luminescence, single point. FAD-linked sulfhydryl oxidase ALR (Homo sapiens), P55789. purified ALR, DTT oxidation. inhibition, % (no concentration beside the values). 290,000 compounds, 3.8% hits. AID 485317, 2010;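 active = mean and each replicate at 75% or more; inconclusive = only one of the two met; inactive = neither met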;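 also: stock transfer was 7.5 nL into about 7.5 µL; 0% = neutral wells and 100% = wells with inactivated enzyme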
Target sequence (P55789 whole entry, looked up): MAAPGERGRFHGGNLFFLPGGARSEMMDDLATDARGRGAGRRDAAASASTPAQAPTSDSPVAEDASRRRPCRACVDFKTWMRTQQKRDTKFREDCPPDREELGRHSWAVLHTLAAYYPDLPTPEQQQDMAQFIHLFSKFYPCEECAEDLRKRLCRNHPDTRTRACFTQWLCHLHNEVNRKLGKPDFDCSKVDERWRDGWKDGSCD
Beta2AR agonist: beta2AR agonists driving receptor internalization, primary screen, cell-based, FAP fluorogen, flow cytometry; Beta-2 adrenergic receptor (Homo sapiens), P07550; Am2.2-beta2AR cells; reference of the scale not given here; response, % (test concentration not listed); 340,000 compounds, 0.43% hits; AID 504454, 2011;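 active = response above a set limit, near 3 SD of response in nonfluorescent compounds, cut at about 42% in these data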;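 also: stock transfer was 100 nL into about 11 µL; a reference agonist was the positive control; negative values mostly stem from fluorescent compounds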
HNF4A DNA FP: change in binding of human HNF4A to DNA, primary screen, biochemical, fluorescence polarization, FITC-DNA | activity change, % at 10 µM | 1 h | 360,000 compounds, 0.3% hits; in the data active = activity change above about 30%, passing the limit was not always enough;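 also: controls were the assay level and a saturating level of protein; the project sought stronger binding though the title names inhibitors; some compounds called inactive have numbers as strong as hits; positive values seem to mean higher polarization but the record does not say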
Target sequence (P41235 whole entry, looked up): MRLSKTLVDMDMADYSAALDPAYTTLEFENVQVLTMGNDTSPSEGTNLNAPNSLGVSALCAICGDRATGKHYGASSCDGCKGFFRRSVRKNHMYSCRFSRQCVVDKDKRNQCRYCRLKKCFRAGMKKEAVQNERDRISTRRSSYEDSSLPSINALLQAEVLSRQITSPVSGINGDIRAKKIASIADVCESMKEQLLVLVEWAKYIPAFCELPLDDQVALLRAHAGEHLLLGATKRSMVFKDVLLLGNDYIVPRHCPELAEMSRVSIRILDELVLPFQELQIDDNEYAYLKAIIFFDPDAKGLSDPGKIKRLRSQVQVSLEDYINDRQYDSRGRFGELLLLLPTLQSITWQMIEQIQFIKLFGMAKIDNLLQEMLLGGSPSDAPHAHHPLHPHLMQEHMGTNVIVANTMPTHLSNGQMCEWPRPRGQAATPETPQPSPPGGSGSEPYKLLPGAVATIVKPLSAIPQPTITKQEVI
Vif TR-FRET: inhibitors of Vif binding to APOBEC3G peptide, primary screen, biochemical, TR-FRET, GST-Vif 1-94, biotin-A3G peptide, dose response retest (AID 1117319); Virion infectivity factor (Human immunodeficiency virus type 1 group M subtype B (isolate …; TR-FRET GST-Vif / biotin-A3G peptide binding; higher % means a stronger effect; test concentration not given here; strong numbers were not always called active; inhibition, %, or IC50 in µM where a hit was titrated; 260,000 compounds, 0.57% hits;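 active = above the screen mean plus three standard deviations and confirmed in dose response; inconclusive = results disagree or hit not tested in dose response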;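 also: Vif residues 1-94 fused to GST binding biotinylated APOBEC3G peptide 110-148; 0% = full assay without inhibitor and 100% = GST in place of GST-Vif; retest series ran down from 100 µM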
Calb FLC: C. albicans growth inhibition with fluconazole, primary screen, CaCi-2 strain, Alamar Blue fluorescence; C. albicans CaCi-2 (fluconazole-resistant clinical isolate) + fluconazole, 48 h; growth inhibition, % (concentration not given with the values); 300,000 compounds, 0.57% hits;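 active = most replicates above 75%; inconclusive = exactly half above 75%; inactive = most below 75%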;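 also: all wells also contain fluconazole at 8 µg/ml as a sub-toxic cotreatment; 0% = median of DMSO wells and 100% = median of geldanamycin control wells; wells of about 8 µL received 7.5 nL stock; the first replicate is given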
LANA-H2A inh: blockers of LANA interaction with H2A/H2B – biochemical, FP readout, HTS, primary screen; Protein LANA1 (Human herpesvirus 8 type P (isolate GK18)), Q9QR71; cell-free LANA-H2A/H2B peptide, fluorescence polarization; inhibition, % (concentration not given with the values); 320,000 compounds, 0.6% hits; in the data active = inhibition mostly above about 10%, no sharp cut-off; inactive = mostly below about 6.7%;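 also: stock transfer was 7.5 nL into about 10 µL; 0% = median of vehicle wells and 100% = median of positive control wells; one replicate is shown; the record names a cut of 25% in any replicate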
An asterisk follows results filed as active; ? = inconclusive; . = not tested or not shown.

structure,RanGTP-Impb inh,ALR inh,Beta2AR agonist,HNF4A DNA FP,Vif TR-FRET,Calb FLC,LANA-H2A inh
CC(C)CCN(C(=O)C1CCCC1)c1c(N)n(Cc2ccccc2)c(=O)[nH]c1=O,.,-6,1,-1.0,-2%,.,1.5
COC(/C=C/Nc1ccc(C)cc1)=C(C#N)C#N,0.8,-6,-5,-2.3,4%,-15,1.5
O=C(CCNS(=O)(=O)c1cccs1)N1CCCCCC1,0.6,-6,-1,0.5,-2%,2,-7.9
C=CCn1c(CCNC(=O)c2ccccc2F)nnc1SCC(=O)Nc1ccccc1F,-3.7,-1,-21,2.8,-3%,-6,5.0
O=C(Cc1cccc(NC(=O)C2CCN(C(=O)C3CCC3)CC2)c1)Nc1cccc(C(=O)N2CCOCC2)c1,.,.,-4,-1.5,1%,.,.
CCCCOC(=O)Nc1cccc(Cl)c1C,6.5,-13,-2,8.1,6%,-7,6.4
CCN(CC)C(=O)CCSc1nnc(-c2ccncc2)o1,-1.6,-3,-1,0.3,.,-2,-3.0
Cc1cccc(Nc2nnc(SCC(=O)NCC3CCCO3)s2)c1C (centres undefined),.,6,1,-0.2,8%,.,4.2
CCc1ccccc1N1C(=O)CC(N2CCc3ccccc32)C1=O (centres undefined),-3.9,99*,1,2.2,21%,-7,4.3
CN(Cc1ccccc1)C(=O)c1[nH]cnc1C(=O)NC1CCN(C(=O)OC(C)(C)C)CC1,.,2,-2,-0.9,.,.,-4.0
Cc1noc(C)c1NC(=O)Nc1ccc2c(c1)C(=O)N([C@H](C)CO)C[C@H](C)[C@@H](CN(C)C(=O)Nc1ccccc1)O2,.,.,3,0.6,2%,.,.
CC(C)(C)C1CCC(C(=O)Nc2ccccc2)CC1 (centres undefined),-0.5,4,51*,4.9,2%,-37,-4.0
O=C(CCN1C(=O)c2ccccc2S1(=O)=O)N1CCN(c2ccccc2)CC1,7.7,88*,-5,-0.6,18%,3,-3.7
N#Cc1cccc(NS(=O)(=O)c2ccccc2Cl)c1,.,0,10,-9.7,-14%,.,0.3
COC(=O)c1cc(Br)ccc1NC(=O)CCNC(=O)c1ccco1,6.7,21,-3,-0.8,.,-3,-4.1
Cc1cccc(NC(=O)c2cnn(-c3ccccc3)c2C)c1C,5.8,-15,-5,3.0,.,-15,0.5
CCCCCCCCN1[C@@H](CC(=O)OCC)c2cc(C(F)(F)F)ccc2S1(=O)=O,-3.3,-7,-9,-2.1,.,-3,-3.4
CCN(C(=O)c1cc2c(=O)n3ccccc3nc2n1C)C1CCCCC1,?,0,4,1.3,.,18,3.2
CC(=O)Nc1ccc(NC(=O)[C@@H]2CCCN2S(=O)(=O)c2ccc3c(c2)OCCO3)cc1,-1.6,.,-2,4.0,.,6,6.5
COc1ccc(OC)c(NC(=O)c2cc(S(=O)(=O)N3CCCC3)cn2C)c1,2.7,-14,2,4.7,.,-1,-1.0
CCCCNC(=O)CCNS(=O)(=O)c1ccc(Br)cc1,-0.9,1,-3,-1.9,1%,?,3.4
C/C(=N\NC(=O)CSCc1cccc(Br)c1)c1ccc([N+](=O)[O-])cc1,1.0,.,-4,2.7,-10%,35,3.7
CC1(C)CC(=O)C(C=Nc2ccc3cn[nH]c3c2)=C(O)C1,1.5,-18,0,1.6,9%,-4,2.7
CN(CC(=O)Nc1cccc(F)c1)C(=O)C1CC(=O)N(CCc2ccccc2)C1 (centres undefined),-3.1,-3,-5,0.6,4%,-9,-5.9
CCCCNC(=O)C(C)N(CCN(C)C)C(=O)CCCCCN1C(=O)NC(c2ccc(Cl)cc2)C(C(=O)OCc2ccccc2)=C1C (centres undefined),.,.,20,1.9,-1%,.,.
Cc1cc(C)c(C#N)c(SCCS(=O)(=O)Cc2ccc(Cl)cc2)n1,0.0,-9,-4,0.1,4%,-5,6.8
Cc1ccc(S(=O)(=O)Cc2ccc(C(=O)NCc3ccc4c(c3)OCO4)o2)cc1,?,-9,-4,0.8,-3%,2,-0.2
O=C(NCCCN1CCOCC1)c1ccccc1N1C(=O)[C@@H]2Cc3c([nH]c4ccccc34)C(c3cccc(Cl)c3)N2C1=O (some centres undefined),7.1,28,17,3.2,.,40,-3.7
CCN(CC)C(=O)Cn1cc(SCC(=O)NC2CCCC2)c2ccccc21,1.3,3,-3,4.8,-7%,-17,1.6
NS(=O)(=O)c1cccc(NC(=O)COC(=O)CNC(=O)c2ccc(-c3ccccc3)cc2)c1,.,-2,-1,4.1,-4%,.,1.3
O=C(COC(=O)/C=C/c1ccc(OC(F)F)cc1)NCCN1C(=O)CSC1=O,1.4,27,-2,-3.8,.,-4,1.9
Nn1c(COc2ccccc2F)nnc1SCC(=O)NC1CC1,0.7,.,-8,1.5,6%,0,.
COc1ccc(CCC(=O)NCCc2ccc(OC)c(OC)c2)cc1,-1.2,-13,-2,4.2,-4%,6,-6.3
Cc1cc(=O)n2ccccc2c1C#N,-0.3,-3,-3,2.9,3%,3,-2.3
O=C(O)c1cccc(Cn2cc(Cl)cn2)c1,-4.7,-1,-1,1.0,-2%,.,-2.0
CCOc1cccc(SCc2noc(C(=O)NCC3CCCO3)c2C(=O)O)c1 (centres undefined),-0.9,-7,6,1.3,>100µM*,-6,-0.9
COc1ccc(C2C(C(=O)N3CCC(C(N)=O)CC3)CC(=O)N2c2ccc(OC)cc2)cc1 (centres undefined),-2.2,.,6,5.1,-5%,24,1.2
Clc1ccc(CN2C3=NCCCN3c3ccccc32)c(Cl)c1,?,-9,7,-4.3,.,-18,-1.3
COC(=O)c1ccc(NC(=O)Nc2ccccc2F)cc1,2.2,-19,5,3.6,-7%,-14,2.1
COC(=O)[C@@H]1CC(O)CN1C(=O)C12CC3CC(CC(C3)C1)C2 (some centres undefined),-1.4,-2,5,0.9,-6%,-5,6.0
O=C1OCCC1Sc1nnc(-c2ccccc2)o1 (centres undefined),?,-2,0,-0.3,?,-1,-3.5
CC(=O)N1CCc2c(sc(NC(=O)C3COc4ccccc4O3)c2C(N)=O)C1 (centres undefined),5.3,-9,15,-4.3,.,6,21
OC(CN1CCCCC1)Cn1c2ccccc2c2ccccc21 (centres undefined),4.8,-8,14,-2.3,-4%,-17,-1.4
Cc1ccc(NC(=O)c2cncc(Br)c2)cc1S(=O)(=O)N(C)C,0.4,0,-5,0.0,-6%,2,2.5
O=C(COC(=O)c1ccc([N+](=O)[O-])s1)NCCc1ccccc1,.,-14,16,-3.5,-4%,.,-4.0
Cc1c(Br)c(=O)oc2c(C)c(O)ccc12,33*,16,-4,0.8,-27%,-29,-0.4
COc1ccc(S(=O)(=O)Nc2nc3ccccc3nc2Nc2ccc3c(c2)OCO3)cc1,1.8,-12,.,.,.,-6,2.4
O=C(C1CCN(Cc2ccc(F)cc2)CC1)N(CCO)Cc1ccccc1,-1.0,1,10,-3.9,1%,5,0.2
Cc1cc(C(=O)N2CCN(C/C=C/c3ccccc3)CC2)no1,-0.7,-6,2,3.5,22%,21,3.6
CN(C)c1ccc(-c2noc(C3CCN(S(=O)(=O)c4cccc(C(=O)O)c4)CC3)n2)cc1,?,22,7,-0.8,29%,4,4.0

The results go on.
structure,RanGTP-Impb inh,ALR inh,Beta2AR agonist,HNF4A DNA FP,Vif TR-FRET,Calb FLC,LANA-H2A inh
CCCCCCNS(=O)(=O)c1ccc(Cl)s1,.,-16,3,-1.3,-1%,-52,2.2
Cc1cc(C)n(CC(O)Cn2c3ccc(Cl)cc3c3cc(Cl)ccc32)c(=O)n1 (centres undefined),-0.4,-11,0,5.1,-1%,10,-1.6
N#C/C(C(=O)N1CCOCC1)=C1\Nc2ccccc2S1,6.0,?,-24,3.3,8%,15,2.0
CC(C(=O)Nc1cccc(S(=O)(=O)N2CCOCC2)c1)N1CCN(C/C=C/c2ccccc2)CC1 (centres undefined),?,-13,1,3.1,9%,-16,3.5
CN(C)c1ccc(/C=N/NC(=O)c2ccccn2)cc1,-0.2,87*,-3,-0.8,-9%,-2,-2.8
CCOCCCNC(=O)c1ccc(N2CCOCC2)c(NS(=O)(=O)c2ccc(OC)cc2)c1,3.2,5,-2,3.7,1%,-15,2.6
O=C(Cc1cccs1)NNC(=S)NC(=O)c1ccc(F)c(F)c1,-2.0,62,2,-6.3,.,49,-1.1
N=C1S/C(=C\c2ccc(-c3ccccc3C(=O)O)o2)C(=O)N1c1ccc2c(c1)OCO2,-9.9,.,2,-10,.,-1,.
CC(C)c1nc(SCC(=O)N2CCCC2)c2c(=O)n(C)c(=O)n(C)c2n1,-0.3,.,-27,0.5,.,1,-1.2
CSc1nc2ccc(NS(=O)(=O)c3ccccc3F)cc2s1,0.0,-6,2,-2.0,-8%,30,-0.8
CCN1CCN(C(=O)/C=C/c2c(F)cccc2Cl)CC1,0.0,-5,-3,5.5,.,-10,19
COc1c2c(nc3occc13)C(CCC(C)(C)O)(OC)C(O)CC2 (centres undefined),?,-6,1,0.4,5%,22,0.9
O=C(CCS(=O)(=O)c1cccs1)N1CCN(c2ccc(F)cc2)CC1,0.6,68,-1,-5.0,-3%,11,-3.3
COc1ccc(C)cc1NC(=O)C(c1ccccc1)N1CCN(CC(=O)N2CCOCC2)CC1 (centres undefined),.,.,4,-2.5,5%,.,.
Cc1cc(C)c(S(=O)(=O)Cc2ccccc2)c(=O)[nH]1,-0.7,2,6,-1.6,-2%,-1,3.0
O=C(Nc1cccnc1)C1=NN(C2CCS(=O)(=O)C2)C(=O)CC1 (centres undefined),0.1,.,0,3.3,.,-4,-2.4
CCOC(=O)C1CCN(C(=O)c2ccccc2N(C)S(C)(=O)=O)CC1,1.6,-4,9,2.8,2%,-8,-5.3
CC(=O)c1ccc(-n2c(SCC(=O)c3c[nH]c4ccccc34)nc3ccccc3c2=O)cc1,2.3,-1,12,14,-65%,-10,9.2
COC(=O)c1cc(-c2ccc(OC)c(OC)c2)n[nH]1,3.5,12,-3,-6.7,2%,-3,-1.5
CN(C)CCNC(=O)C1CCCNC1=O (centres undefined),2.5,.,1,-1.3,0%,4,3.8
C=CCn1c(SCc2ccc(Br)cc2F)nc2cc(C(=O)O)ccc2c1=O,-2.8,-29,8,-2.3,10%,3,-2.1
COc1ccccc1NC1=NCC(=O)N1Cc1ccccc1,2.0,0,1,0.1,9%,6,-1.8
CCN(c1ccccc1C(=O)O)S(=O)(=O)c1ccc2[nH]c(=O)[nH]c2c1,-1.8,-24,3,-2.5,14%,1,2.5
COc1ccc(C(=O)C[n+]2ccc(-c3nnc4n3CCCCC4)cc2)cc1,6.2,2,8,2.4,?,-4,1.1
OC1(c2ccc(F)cc2)CCN(Cc2cccnc2)CC1,1.6,-7,4,3.4,.,-7,-2.7
COc1ccc(CC(=O)N/N=C/c2cc(Br)cs2)cc1OC,6.7,64,6,-0.9,.,-37,5.4
CCN(CC(=O)NCc1ccc(F)cc1)C(=O)/C=C/c1ccco1,-3.5,88*,-2,5.4,4%,4,1.0

Source: PubChem (several laboratories)

This is a random part of the collection; about 6.3% have a hit in one of these screens.
